Screening data deposited in PubChem by several laboratories.
HNF4A DNA FP: change in binding of human HNF4 alpha to DNA | P41235 | HNF4a-FITC DNA binding, fluorescence polarization, 1 h | activity change, % at 10 µM | actives 0.3% (n = 360,000) | AID 1224865; in the data active = activity change above about 30%, passing the limit was not always enough;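 note: controls were the assay level and a saturating level of protein; the project sought stronger binding though the title names inhibitors; some compounds called inactive have numbers as strong as hits; positive values seem to mean higher polarization but the record does not say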
LANA-H2A inh: blocks KSHV LANA binding to histone H2A/H2B. cell-free LANA-H2A/H2B peptide, fluorescence polarization. inhibition, % (concentration not given with the values). actives 0.6% (n = 320,000). AID 2629; in the data active = inhibition mostly above about 10%, no sharp cut-off; inactive = mostly below about 6.7%;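 note: stock transfer was 7.5 nL into about 10 µL; 0% = median of vehicle wells and 100% = median of positive control wells; one replicate is shown; the record names a cut of 25% in any replicate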
Target sequence (Q9QR71 whole entry, looked up): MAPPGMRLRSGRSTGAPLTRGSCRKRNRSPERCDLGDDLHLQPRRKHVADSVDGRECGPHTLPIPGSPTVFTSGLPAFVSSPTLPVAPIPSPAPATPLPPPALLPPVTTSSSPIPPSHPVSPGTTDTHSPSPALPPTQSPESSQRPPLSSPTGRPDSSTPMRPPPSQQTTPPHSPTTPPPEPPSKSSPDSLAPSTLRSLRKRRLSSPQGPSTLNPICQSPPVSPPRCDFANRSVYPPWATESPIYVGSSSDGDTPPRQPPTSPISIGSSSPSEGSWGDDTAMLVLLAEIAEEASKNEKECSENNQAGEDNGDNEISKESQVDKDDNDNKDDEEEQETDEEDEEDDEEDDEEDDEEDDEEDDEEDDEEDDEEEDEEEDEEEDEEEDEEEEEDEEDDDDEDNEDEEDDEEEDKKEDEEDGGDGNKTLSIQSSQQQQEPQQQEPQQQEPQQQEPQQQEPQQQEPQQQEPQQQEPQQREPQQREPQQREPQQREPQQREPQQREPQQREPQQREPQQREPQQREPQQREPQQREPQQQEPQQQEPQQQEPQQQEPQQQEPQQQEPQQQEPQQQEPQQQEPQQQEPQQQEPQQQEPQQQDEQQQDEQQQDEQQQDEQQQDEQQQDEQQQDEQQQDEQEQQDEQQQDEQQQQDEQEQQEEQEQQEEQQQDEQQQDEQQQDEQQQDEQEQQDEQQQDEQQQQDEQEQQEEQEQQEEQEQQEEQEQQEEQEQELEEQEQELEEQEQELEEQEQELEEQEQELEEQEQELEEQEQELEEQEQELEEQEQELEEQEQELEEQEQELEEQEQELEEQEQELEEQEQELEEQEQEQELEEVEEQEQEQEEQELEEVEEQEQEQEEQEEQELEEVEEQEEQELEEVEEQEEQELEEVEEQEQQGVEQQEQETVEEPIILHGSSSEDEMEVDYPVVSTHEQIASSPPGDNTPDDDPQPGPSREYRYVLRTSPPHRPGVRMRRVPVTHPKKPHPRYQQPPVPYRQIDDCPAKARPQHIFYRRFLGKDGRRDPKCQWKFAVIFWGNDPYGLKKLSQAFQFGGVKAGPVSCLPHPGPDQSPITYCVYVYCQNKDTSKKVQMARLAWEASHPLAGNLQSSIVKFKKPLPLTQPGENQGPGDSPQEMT
FGF22 binding: binders of recombinant human FGF22 by thermal shift | calls only at 9.99 µM | Q9HCT0 | SYPRO orange fluorescence; percent of sucrose octasulfate shift, DMSO zero | actives 1.5% (n = 340,000);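 active = melting point raised past a set limit in the mean and every replicate; three in four hits are not shown here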
ALR H2O2 inh: blocks human ALR sulfhydryl oxidase activity | purified ALR, DTT oxidation, H2O2 HRP-luminol luminescence | inhibition, % (test concentration not listed) | actives 3.8% (n = 290,000) | P55789;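 active = mean and each replicate at 75% or more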;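 note: stock transfer was 7.5 nL into about 7.5 µL; 0% = neutral wells and 100% = wells with inactivated enzyme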
Ecoli growth: E. coli growth inhibition; actives 0.21% (n = 330,000); OD600 absorbance (concentration not given with the values); Escherichia coli growth, OD600, 23 h; active compounds read low; AID 1053175;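 active = OD600 absorbance below the run mean of sample wells minus 3.6 SD, in any replicate, cut at about 0.56 in these data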;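 note: stock transfer was 300 nL into about 60 µL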
B2AR ag: activates human beta-2 adrenergic receptor causing internalization; response, % (concentration not given with the values); AID 504454; actives 0.43% (n = 340,000); Am2.2-beta2AR cells, FAP receptor internalization, flow cytometry; reference of the scale not given here;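 active = response above a set limit, near 3 SD of response in nonfluorescent compounds, cut at about 42% in these data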;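 note: stock transfer was 100 nL into about 11 µL; a reference agonist was the positive control; negative values mostly stem from fluorescent compounds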
UCH37 inh: human UCH37 deubiquitinating enzyme inhibition; inhibition, % (test concentration not listed); AID 588478; purified proteasome/UCH37, Ub-AMC cleavage fluorescence; actives 0.33% (n = 330,000);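 active = mean of two replicates above 20%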;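 note: 0% = compound-free wells with enzyme and 100% = wells lacking proteasome; stock transfer was 100 nL into about 20 µL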
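Material: Human UCH37 enzyme supplied as purified proteasome complex | Schedule: 30 min preincubation with enzyme, 25 min cleavage at room temperature | Detection: AMC fluorescence 355/460 nm | Measure: % inhibition of Ub-AMC cleavage fluorescence | Controls: Wells without proteasome as full block, compound-free enzyme plus substrate as uninhibited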
Active calls of the source: *; i = inactive; nt = no result given. The list is partial. The share of hits here may be higher or lower than overall.

SMILES	HNF4A DNA FP	LANA-H2A inh	FGF22 binding	ALR H2O2 inh	Ecoli growth	B2AR ag	UCH37 inh
Cc1ccccc1C(=O)Nc1cccc(NC(=O)c2ccc(-c3ccc(Br)cc3)o2)c1	-1.5	6.2	nt	nt	0.704	-5.1	-1.3
CCCCOc1ccc(/C=C/C(=O)Nc2ccc(C(N)=O)cc2)cc1	-0.8	1.0	nt	1.8	0.698	7.9	-7.4
CCOC(=O)C1=C(C)NC2=C(C(=O)C(C(=O)OCC)C(c3ccc(OC)cc3)C2)C1c1ccccn1 (stereo unspecified)	2.6	-0.5	nt	1.2	0.718	4.2	-103.4
CCCNC(=O)Cc1c(C)oc2ccccc12	-0.7	1.1	i	2.0	0.727	0.9	-0.9
CCN1CCN(C(c2cccs2)C(C)NC(=O)c2ccco2)CC1 (stereo unspecified)	-0.1	-4.9	nt	-0.8	0.743	-4.2	-0.2
CC1(NC(=O)Cc2csc(-c3cccc(Cl)c3)n2)CCS(=O)(=O)C1 (stereo unspecified)	1.5	nt	i	1.9	0.656	-11.4	2.8
CC1CCCCC1NC(=O)COC(=O)C12CC3CC(CC(Cl)(C3)C1)C2 (stereo unspecified)	-1.3	-3.4	i	-3.9	0.664	-3.0	6.6
O=S(=O)(c1ccc(Cl)s1)N1CCCCC1	1.6	-9.3	i	-1.4	0.702	-3.8	2.0
Cc1cc(C)nc(Nc2ncc(O)n2-c2ccccc2)n1	-0.6	0.5	nt	2.8	0.687	-14.9	4.7
CCn1c(SCC(=O)N2CCCc3ccccc32)nnc1-c1ccoc1C	5.1	0.8	nt	1.7	0.757	-7.1	-0.8
COC(=O)C1=CN(C2CC2)C=C(C(=O)OC)C1c1ccc(C(F)(F)F)cc1	-2.4	-1.3	i	-2.1	0.705	2.7	-136.1
C[C@H](NC(=O)c1ccc(Cl)cc1)C(=O)OCn1nnc2ccccc2c1=O	0.1	-1.7	i	3.1	0.704	0.6	1.0
CC1(c2cccc3ccccc23)OC(=O)c2ccccc21 (stereo unspecified)	-1.8	nt	i	nt	nt	6.6	nt
Cc1csc(NC(=O)CSc2nnc(NC(=O)C3CC(=O)N(c4ccccc4)C3)s2)n1 (stereo unspecified)	-0.9	-2.5	i	-20.9	0.655	-12.5	1.5
CCc1ccc(NC(=O)CSc2nc(N)c(NC(=O)c3ccc(F)c(F)c3)c(=O)[nH]2)cc1	-0.1	-5.2	i	3.2	0.682	2.8	-0.1
O=C(CCC(=O)N1CCN(c2ccc(F)cc2)CC1)c1ccccc1	3.8	0.5	i	21.0	0.633	16.4	1.5
Cc1ccc(NC(=S)N2CCC(c3ccc(C)cc3)C2)cc1 (stereo unspecified)	1.1	3.0	i	-5.3	0.566	1.6	2.1
O=c1cc(N2CCN(Cc3ccccc3)CC2)[nH]c(=O)n1-c1cccc(C(F)(F)F)c1	-2.0	-5.5	nt	12.1	0.688	4.0	-1.4
Cc1c(OCC(=O)C(C)(C)C)ccc2c(-c3ccccc3)cc(=O)oc12	6.3	0.9	i	nt	0.655	13.7	-1.3
O=C1OC2(c3ccccc31)c1ccccc1-c1ccccc12	7.4	nt	i	nt	0.67	8.3	1.3
O=C(Cn1nnc(-c2ccc(CN3CCOCC3)cc2)n1)N1CCCc2ccccc21	-1.8	2.9	nt	-14.1	0.719	5.2	5.7
CCN(c1ccc(OC)cc1)c1ncnc2nc[nH]c12	4.0	-2.9	i	-4.3	0.707	2.4	4.8
Cc1cc(C)c(S(=O)(=O)N2CCCC(C(=O)NCc3ccccn3)C2)c(C)c1 (stereo unspecified)	-1.5	0.6	i	1.4	0.686	1.5	2.0
Cc1nonc1-c1csc(N)n1	1.1	0.1	i	-4.8	0.703	2.1	2.7
CN1CCN(c2ccc(-c3ccnn3C(=O)Nc3ccccc3)cc2)CC1	1.4	0.8	i	12.6	0.684	3.5	2.4
N#CC(Cc1cc2ccccc2n1S(=O)(=O)c1ccccc1)OCc1ccccc1 (stereo unspecified)	0.1	nt	i	nt	0.697	2.5	-1.4
CCCc1cc(=O)[nH]c(N/N=C/C=C\c2ccccc2)n1	0.4	-6.8	i	7.6	nt	5.2	nt
CCOC(=O)c1c(C)n(-c2ccccc2)c2ccc(O)c(CN(C)C)c12	-1.0	-1.1	i	30.1	0.687	0.8	4.8
O=C(c1ccco1)N1N=C(c2cccs2)CC1c1cc([N+](=O)[O-])ccc1O (stereo unspecified)	-5.9	-7.6	i	5.5	0.692	6.1	6.6
COCCNC(=O)CSc1nc(N)c(NC(=O)c2ccccc2F)c(=O)[nH]1	0.3	-3.2	nt	6.0	0.689	-4.2	0.8
O=C(CCC1CCCCC1)NCc1cccs1	3.2	2.2	nt	-0.9	0.731	-8.1	2.9
Cc1ccc(C(=O)n2cnc3ccccc32)cc1C	5.2	2.7	i	-7.5	0.663	14.6	3.6
O=S(=O)(c1ccccc1)N1CCN(c2ccnc3cc(Cl)ccc23)CC1	-1.2	0.0	nt	1.0	0.679	-3.8	-0.7
CC(=O)c1ccc(NC(=S)N2CCC(O)CC2)cc1	1.4	2.3	nt	-7.7	0.712	-2.3	1.4
CCOC(=O)c1cn2nc(N3CCCCC3)ccc2n1	0.9	2.8	i	-0.1	0.645	-2.1	2.3
O=C1/C(=C\c2ccccc2)SC(=S)N1CCC(=O)N1CCCCC1CCO (stereo unspecified)	-3.1	2.2	i	-1.6	0.697	-5.5	10.5
COC(=O)CSc1nc(-c2ccccc2)cc(-c2ccco2)c1C#N	4.8	-7.0	nt	94.8*	0.746	7.6	-16.5
Cc1cc(C(=O)OCC(=O)c2ccc(Br)s2)no1	3.7	-1.0	i	4.4	0.726	-2.9	2.5
O=C(O)CNC(=O)c1ccc(Oc2c(F)c(F)c(Oc3ccc(C(=O)NCC(=O)O)cc3)c(F)c2F)cc1	-0.2	-0.8	i	-7.4	0.703	-4.2	4.9
Cc1ccc(NC(=O)CN2CCC3(O)CCCCC3C2c2ccc3c(c2)OCO3)c(C)c1 (stereo unspecified)	-0.2	3.5	nt	6.2	0.713	1.7	0.7
COC(=O)c1c(-c2cccc(C)c2)csc1NC(=O)C1CCCO1 (stereo unspecified)	3.4	0.9	i	1.0	0.72	3.0	1.1
O=C(O)c1ccc(C2CCCCC2)cn1	-0.2	7.9	nt	-4.4	0.667	2.4	-0.3
COc1cc(NC(=O)CSc2nnc(-c3cc(C)on3)o2)cc(OC)c1	5.2	5.1	i	-6.8	0.664	6.5	0.4
O=c1cc(-c2ccccc2)nc2nc(COc3ccccc3)[nH]n12	-1.9	1.4	nt	3.6	0.726	4.4	5.0
CCOc1ccc(NC(=O)c2nnn(CC(=O)Nc3ccccc3OC)c2N)cc1	4.5	-2.4	nt	-4.3	0.725	2.0	-25.1
Cc1nn(-c2ccccc2C(=O)O)c(=O)c2ccccc12	-2.9	1.3	nt	-0.6	0.682	7.8	5.7
O=C(Nc1ccc2oc(=O)ccc2c1)c1ccco1	2.5	-1.4	nt	-2.4	0.655	22.7	-96.5
Cc1ccccc1CCNC(=O)Cn1ccc2cc(S(=O)(=O)N3CCCC3)ccc21	1.2	-1.4	i	-21.5	0.704	-35.2	1.0
CCc1cc2c(C)cc(=O)oc2cc1OC(=O)C1CCCN1C(=O)OC(C)(C)C (stereo unspecified)	nt	-6.1	nt	3.0	0.708	nt	-103.6
Cc1cccc(NCc2cc(Cl)ccc2O)n1	-2.6	3.3	i	39.7	0.617	0.0	1.1
O=C1C2CCCCC2C(=O)N1c1cccc(OS(=O)(=O)c2ccccc2)c1 (stereo unspecified)	-3.3	1.3	nt	-0.3	0.69	-0.9	4.7
Cc1ccc(O)c(CNCCNCc2cc(C)ccc2O)c1	1.6	1.6	i	60.9	nt	21.7	1.7
O=C(c1ccc(Br)o1)N1CCN(c2ccc(F)cc2)CC1	1.5	-4.6	nt	29.9	0.699	-3.6	1.9
CCNC(=O)CC1SC(=Nc2ccc(C)c([N+](=O)[O-])c2)N(C)C1=O (stereo unspecified)	-1.6	-1.9	i	-10.5	0.68	-1.0	4.8
CN(C)C(CNC(=O)C1CC(=O)N(Cc2ccccc2)C1)c1ccccc1 (stereo unspecified)	3.9	2.9	i	-3.0	0.726	-9.6	6.1
Cc1ccc(CNC(=O)CNS(=O)(=O)c2ccc(Br)s2)cc1	-0.9	7.4	i	-2.8	0.707	-0.9	-0.9
Nc1c(-c2ccccc2)cnn1-c1cccc(C(F)(F)F)c1	-2.0	5.2	nt	1.2	0.709	-3.1	0.9
Cc1ccc(-c2nc(CSCC(=O)NCCN3CCN(Cc4ccccc4)CC3)c(C)o2)cc1	0.3	-7.0	nt	99.1*	0.666	0.1	2.6
COc1cccc(C2=NOC(C(=O)NCc3cccnc3)C2)c1 (stereo unspecified)	1.7	2.6	i	1.7	0.691	-4.2	3.5
Cc1cc2n(n1)C(c1ccc3c(c1)OCO3)Nc1c(C)cccc1-2 (stereo unspecified)	1.0	-3.4	nt	98.1*	0.662	4.8	-32.7
Going on with the list:
SMILES	HNF4A DNA FP	LANA-H2A inh	FGF22 binding	ALR H2O2 inh	Ecoli growth	B2AR ag	UCH37 inh
O=C(c1ccc(NC(=O)C2(c3ccccc3)CCOCC2)cc1)N1CCOCC1	-0.5	5.7	nt	-0.5	0.733	0.2	-0.1
Nc1nnc(SCC(=O)c2ccc3ccccc3c2)s1	nt	-1.8	nt	-31.5	0.67	-18.3	3.7
CCc1nnc2c3cnn(-c4ccccc4)c3ncn12	2.9	4.7	nt	-4.9	0.681	12.3	-4.1
CCN(CC)c1ccc(/C=C2\CCC(/C=N/NC(=O)c3ccc(=O)n(C)c3)=C2N2CCOCC2)cc1	119.3	-9.1	nt	99.6*	nt	-117.7	nt
CCCS(=O)(=O)N1CCC(C(=O)NCCN(C)Cc2ccccc2)CC1	6.9	-1.5	nt	4.2	0.732	-7.6	-1.1
NCCCC[C@H]1CNC(=S)N1CC1(c2ccccc2)CC1	0.7	-0.5	i	-3.2	nt	2.0	1.5
O=C(c1ccccc1)c1nnc(-c2ccccc2F)o1	-0.1	4.3	nt	nt	0.668	2.9	0.3
COc1ccccc1CNC(=O)COc1ccc2c(c1)CCC2	-0.8	0.4	i	-1.0	0.727	5.5	5.3
COc1ccc(C(C)NCCC(c2ccc(OC(C)C)cc2)c2ccccc2OC)cc1 (stereo unspecified)	1.3	0.9	i	-20.9	0.665	22.9	0.0
CCOC(=O)C1=C(C)OC(N)=C(C#N)C1c1cc2c(cc1Br)OCO2 (stereo unspecified)	-4.0	2.2	nt	nt	0.725	2.6	0.7
O=C(CN1CCCC1)Nc1ccccc1Sc1ccc(Cl)cc1	-1.9	2.0	i	-4.5	0.725	9.2	1.9
CC(=O)Nc1sc2c(c1CN1CCN(c3ccccn3)CC1)CCCC2	-1.9	-3.4	i	7.6	0.693	-6.0	5.7
CCC1Oc2ccccc2N(CC(=O)NCc2cccs2)C1=O (stereo unspecified)	0.6	-7.4	i	-7.8	0.656	9.4	2.1
COc1cc(NC2c3ccccc3C(=O)N2Cc2ccccc2Cl)cc(OC)c1OC (stereo unspecified)	-1.5	-0.6	i	-10.8	0.724	-3.2	1.0
Cc1nn(Cc2c(F)c(F)c(F)c(F)c2F)c(C)c1NC(=O)c1ccc(COc2cc(Cl)ccc2Cl)cc1	1.5	-1.8	nt	-2.2	0.75	7.5	0.5
Cc1cc(NC(=O)c2cnn3cccnc23)no1	-1.0	1.2	i	-1.3	0.649	-5.7	-0.2
Cc1cc(C)n(C(=O)C(C(=O)c2ccccc2)C(C)C)n1 (stereo unspecified)	2.3	-0.4	i	-3.9	0.665	0.0	1.4
O=C(COc1ccc2c(-c3ccccc3)cc(=O)oc2c1)NCC1CCC(C(=O)O)CC1 (stereo unspecified)	2.7	1.3	i	nt	0.707	6.5	5.8
CCN1CCN(CC(O)COCc2ccccc2)CC1 (stereo unspecified)	-1.1	0.6	nt	0.2	0.729	-1.4	1.3
